Ecoli rRNA inh – selective bacterial rRNA inhibition in E. coli; E. coli WT GFP vs humanized-ribosome RFP mutants, fluorescence, 24 h; active compounds read low; DMSO median 0, no signal -100; GFP signal change (wild-type ribosome), % (no concentration beside the values); 350,000 compounds, 1.6% hits; AID 720706;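 active = significant combined selectivity score with lowered wild-type GFP, culture density cut under 30%, mutant RFP and density less affected; inactive = any of these conditions unmet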; note: one replicate is shown; some compounds called inactive have numbers as strong as hits
Vif A3G – inhibitors of Vif binding to APOBEC3G peptide, primary screen, biochemical, TR-FRET, GST-Vif 1-94, biotin-A3G peptide, dose response retest (AID 1117319). inhibition, %, or IC50 in µM where a hit was titrated. 260,000 compounds, 0.57% hits. TR-FRET GST-Vif / biotin-A3G peptide binding; higher % means a stronger effect; test concentration not given here; strong numbers were not always called active;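 active = above the screen mean plus three standard deviations and confirmed in dose response; inconclusive = results disagree or hit not tested in dose response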;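 note: Vif residues 1-94 fused to GST binding biotinylated APOBEC3G peptide 110-148; 0% = full assay without inhibitor and 100% = GST in place of GST-Vif; retest series ran down from 100 µM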
HNF4A DNA FP – change in binding of human HNF4 alpha to DNA | HNF4a-FITC DNA binding, fluorescence polarization, 1 h | activity change, % at 10 µM | 360,000 compounds, 0.3% hits; in the data active = activity change above about 30%, passing the limit was not always enough;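 note: controls were the assay level and a saturating level of protein; the project sought stronger binding though the title names inhibitors; some compounds called inactive have numbers as strong as hits; positive values seem to mean higher polarization but the record does not say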
Target sequence (P41235 whole entry, looked up): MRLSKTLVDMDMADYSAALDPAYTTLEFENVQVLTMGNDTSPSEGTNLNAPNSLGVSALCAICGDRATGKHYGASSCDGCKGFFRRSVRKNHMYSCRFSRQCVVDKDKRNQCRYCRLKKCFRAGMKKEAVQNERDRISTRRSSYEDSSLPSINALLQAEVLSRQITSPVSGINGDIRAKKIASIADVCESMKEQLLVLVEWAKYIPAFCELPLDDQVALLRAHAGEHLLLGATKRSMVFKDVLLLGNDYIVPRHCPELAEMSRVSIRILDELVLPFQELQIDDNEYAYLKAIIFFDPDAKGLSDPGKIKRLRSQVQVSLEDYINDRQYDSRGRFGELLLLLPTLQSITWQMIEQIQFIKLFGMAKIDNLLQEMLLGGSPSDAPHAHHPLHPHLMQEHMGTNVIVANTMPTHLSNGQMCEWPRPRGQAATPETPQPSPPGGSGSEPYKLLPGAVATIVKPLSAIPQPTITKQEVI
ALR H2O2 inh – human ALR oxidase inhibition via reduced H2O2; P55789; 290,000 compounds, 3.8% hits; inhibition, % (concentration not given with the values); purified ALR, DTT oxidation, H2O2 HRP-luminol luminescence;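 active = mean and each replicate at 75% or more; inconclusive = only one of the two met; inactive = neither met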;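 note: stock transfer was 7.5 nL into about 7.5 µL; 0% = neutral wells and 100% = wells with inactivated enzyme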
Target sequence (P55789 whole entry, looked up): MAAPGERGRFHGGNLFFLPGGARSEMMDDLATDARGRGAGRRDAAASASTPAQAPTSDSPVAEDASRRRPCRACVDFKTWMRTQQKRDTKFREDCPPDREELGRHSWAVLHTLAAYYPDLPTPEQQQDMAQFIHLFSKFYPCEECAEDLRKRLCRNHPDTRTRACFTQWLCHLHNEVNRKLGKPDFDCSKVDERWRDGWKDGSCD
E coli growth – E. coli growth inhibition | Escherichia coli growth, OD600, 23 h; active compounds read low | OD600 absorbance (test concentration not listed) | AID 1053175 | 330,000 compounds, 0.21% hits;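 active = OD600 absorbance below the run mean of sample wells minus 3.6 SD, in any replicate, cut at about 0.56 in these data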;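 note: stock transfer was 300 nL into about 60 µL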
AF4-AF9 inh – MLL-AF4/AF9 protein interaction inhibition. AID 651704. inhibition, % at 10 µM. AlphaScreen, biotin-AF4 peptide binding to FLAG-AF9. 350,000 compounds, 0.47% hits. P42568;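 active = every replicate reaching a set inhibition limit, whatever the replicate mean, cut at about 25% in these data; inconclusive = mean inhibition reaches that limit but some replicates miss it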;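 note: 0% = plate neutral control median and 100% = total signal loss; the record names both 10 and 1 µM as test concentration; the first replicate is given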
FGF22 binding – FGF22 (human) thermal shift binding. Q9HCT0. recombinant FGF22 thermal shift, SYPRO orange fluorescence; percent of sucrose octasulfate shift, DMSO zero. calls only at 9.99 µM. 340,000 compounds, 1.5% hits. AID 651658;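 active = melting point raised past a set limit in the mean and every replicate; inconclusive = no clear call; three in four hits are not shown here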
Target sequence (Q9HCT0 whole entry, looked up): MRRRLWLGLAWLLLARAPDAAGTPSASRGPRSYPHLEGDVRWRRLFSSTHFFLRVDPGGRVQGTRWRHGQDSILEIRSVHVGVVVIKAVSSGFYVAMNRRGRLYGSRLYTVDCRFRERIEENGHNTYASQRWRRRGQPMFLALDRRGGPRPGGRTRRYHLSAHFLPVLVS
Ecoli rRNA inh OD600 – also measured in Ecoli rRNA inh; calls as there; OD600 change, %; measured here: OD600 growth;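 optical density of the mix in the first replicate; 0 = DMSO median and -100 = no signal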
Ecoli rRNA inh RFP – second read-out of Ecoli rRNA inh, no call of its own (marks repeat the call); RFP signal change, %; measured here: RFP humanized mutant strains;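 first replicate; 0 = DMSO median and -100 = no signal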
Active calls of the source: *; i = inactive; ? = inconclusive; · = not tested or not shown; & = joins results of further samples. The list is partial (hit frequency here may not be typical).

| nr | smiles | AF4-AF9 inh | HNF4A DNA FP | ALR H2O2 inh | Ecoli rRNA inh OD600 | Ecoli rRNA inh | E coli growth | Ecoli rRNA inh RFP | FGF22 binding | Vif A3G |
| --- | --- | --- | --- | --- | --- | --- | --- | --- | --- | --- |
| 1 | CCCN(C)C[C@@H]1OCCCC[C@@H](C)Oc2ccc(NS(=O)(=O)c3ccc(Cl)cc3)cc2C(=O)N([C@@H](C)CO)C[C@@H]1C | 3.9 | · | · | -3 | 7 | · | 1.9 | i | · |
| 2 | O=C(O)Cc1cc(=O)[nH]n(-c2ccccc2)c1=O | 0.3 | 2.5 | · | 15 | 8 | 0.69 | 1.2 | i | 3% |
| 3 | O=C(CSc1nc2ccccc2c(=O)n1-c1ccccc1)NC(=O)CN1CCCC1=O | -3.4 | -3.7 | -1 | -4 | 3 | 0.67 | -7.8 | · | -6% |
| 4 | O=C(O)c1ccccc1SSc1ccccc1C(=O)O | -3.5 | 2.5 | 26 | 10 | 16 | 0.68 | -1.4 | i | -10% |
| 5 | Cc1nnc(N2C(=O)C(O)=C(C(=O)c3ccco3)C2c2cccc3ccccc23)s1 (centres undefined) | 6.3 | -6.3 | -30 | -1 | -6 | · | 44 | i | 6% |
| 6 | O=C(CCC1CCCC1)NNC(=O)c1cccc(Cl)c1 | -11 | -0.3 | 2 | 0 | -1 | 0.7 | 1.3 | i | · |
| 7 | Cc1ccc(S(=O)(=O)CCC(=O)Nc2nc(-c3ccncc3)cs2)cc1 | -9.7 | -1.7 | 0 | -6 | -3 | 0.7 | -0.5 | i | · |
| 8 | Cc1cccc(NC(=S)NCC(c2cccnc2)N(C)C)c1 (centres undefined) | · | -4.1 | -24 | · | · | 0.69 | · | · | · |
| 9 | CCNC(=O)[C@@H]1[C@@H](CO)[C@@H]2Cn3c(ccc(-c4ccccc4)c3=O)[C@@H]2N1C(=O)Cc1cccnc1 | -1.9 | · | · | 6 | 3 | · | -1.4 | i | · |
| 10 | COc1ccc(Cn2c(-c3ccc(C)cc3)nc3c(c(=O)c4ccccc4n3C)c2=O)cc1 | -5.5 | 8.0 | -2 | · | · | 0.71 | · | i | · |
| 11 | Cc1nc(S/C(=C/c2ccc(-c3ccc(C(=O)O)cc3)o2)C(=O)O)n[nH]1 | 3.2 | 3.0 | · | -6 | 5 | · | -7.4 | i | -3% |
| 12 | CCOc1ccnc2c1c(=O)n(Cc1cc(OC)cc(OC)c1)c(=O)n2C | -4.9 | 0.4 | · | 21 | 12 | 0.61 | 2.3 | i | · |
| 13 | CCOC(=O)c1ccc(-n2c(CCC(=O)O)ccc2-c2cccs2)cc1 | 0.5 | 8.6 | 27 | 1 | 0 | 0.74 | 1.9 | i | 14% |
| 14 | O=C(Cc1c[nH]c2ccccc12)N[C@@H](Cc1c[nH]c2ccccc12)C(=O)O | -0.4 | 2.4 | 0 | 7 | 7 | 0.71 | -0.2 | i | 5% |
| 15 | Cn1c(NCc2ccco2)nc2c1c(=O)n(Cc1ccc(Cl)cc1)c(=O)n2C | · | -3.4 | -7 | · | · | 0.74 | · | · | 26% |
| 16 | COc1ccc2oc(=O)c(C(=O)NCc3ccc4c(c3)OCO4)cc2c1 | · | 2.1 | · | · | · | 0.8 | · | · | 10% |
| 17 | Cc1c(Cl)c(C(F)(F)F)nn1CC(=O)NCc1ccccc1 | · | -2.0 | · | · | · | 0.66 | · | · | 0% |
| 18 | COc1nc(-c2ccccc2)ccc1-c1noc(-c2cccnc2)n1 | · | 9.4 | -5 | · | · | 0.71 | · | · | ? |
| 19 | CC(=O)Nc1cccc(-c2ccnc3c2CC(C)(C(=O)NCc2ccccc2)O3)c1 (centres undefined) | -2.4 | 2.0 | · | -15 | -1 | · | -6.7 | i | · |
| 20 | CNC[C@H]1OCCCC[C@H](C)Oc2ccc(NC(=O)Nc3ccccc3)cc2C(=O)N([C@@H](C)CO)C[C@@H]1C | 3.4 | · | · | 5 | 3 | · | -0.7 | i | · |
| 21 | O=C(COC(=O)/C=C/c1ccccc1)NCc1ccccc1Cl | -1.0 | -1.5 | -4 | 6 | 8 | 0.71 | -0.2 | i | -4% |
| 22 | COc1ccc(N2CCN(C(=O)Cc3ccc(-n4c(=O)[nH]c5ccccc5c4=O)cc3)CC2)cc1 | · | 1.9 | 26 | · | · | 0.69 | · | · | ? |
| 23 | O=C(N/N=C/c1c(O)n(-c2ccccc2Cl)c(=O)c2ccccc12)C1COc2ccccc2O1 (centres undefined) | · | 15 | 28 | · | · | 0.66 | · | · | · |
| 24 | Fc1ccc(-c2csc3ncnc(N4CCN(c5ccccc5)CC4)c23)cc1 | 2.2 | 9.9 | · | -14 | 1 | 0.61 | 0.8 | i | 3% |
| 25 | CCCCC(CC)CNC(=O)C(=O)C1C(=O)Nc2ccccc21 (centres undefined) | 6.3 | -0.9 | · | -22 | -16 | 0.67 | -9.6 | i | 4% |
| 26 | O=C(c1cnccn1)N(Cc1ccco1)C1(C(=O)NC2CCCC2)CCCCC1 | · | 0.6 | 10 | · | · | 0.68 | · | · | 3% |
| 27 | CN1CCC(OC(=O)c2cccc(Br)c2)CC1 | · | 2.0 | · | · | · | 0.73 | · | · | 7% |
| 28 | CC1C(=O)N(Cc2cn(CC3CCCCC3)nn2)CCS(=O)(=O)N1Cc1ccc(-c2ccccc2)cc1 (centres undefined) | -1.3 | 5.0 | · | 8 | 1 | · | -3.7 | · | · |
| 29 | C[C@H]1CN([C@@H](C)CO)C(=O)c2cc(NC(=O)Nc3ccccc3)ccc2O[C@H]1CN(C)Cc1ccc(-c2ccccc2)cc1 | 0.1 | · | · | -12 | -1 | · | 5.2 | i | · |
| 30 | CN(C)c1ccc(C(CNS(=O)(=O)c2ccc3ccccc3c2)N2CCOCC2)cc1 (centres undefined) | -18 | -2.2 | 45 | -10 | -9 | 0.67 | 0.8 | i | -1% |
| 31 | C[C@@H]1CN([C@H](C)CO)C(=O)c2cc(NC(=O)CCC(F)(F)F)ccc2O[C@@H](C)CCCCO[C@@H]1CN(C)Cc1ccccc1 | -4.7 | · | · | 0 | 0 | · | -4.3 | i | · |
| 32 | CCOc1c(CNc2nnnn2C)cccc1OC | 2.8 | 3.2 | 58 | 7 | 22 | 0.71 | 0.7 | i | -3% |
| 33 | CCc1ccc(S(=O)(=O)Nc2nccs2)cc1 | -1.1 | -0.7 | 0 | 8 | 5 | 0.65 | 4.2 | i | · |
| 34 | O=C(NCCCn1ccnc1)/C(=C/c1ccccc1)NC(=O)c1ccccc1 | 0.4 | -1.3 | 4 | -3 | 7 | 0.68 | -1.3 | i | 16% |
| 35 | COc1ccc(Cl)cc1S(=O)(=O)n1ccnc1 | -8.2 | 7.1 | -10 | 16 | 12 | 0.61 | 1.0 | i | -6% |
| 36 | CCC(=O)N(C)C[C@@H]1Oc2ncc(-c3ccccc3F)cc2C(=O)N([C@H](C)CO)C[C@H]1C | -0.2 | · | · | 9 | 5 | · | -0.5 | i | · |
| 37 | CCOc1ccc(NC(=O)CSc2nnc(Cc3ccccc3)c(=O)n2N)cc1 | -2.3 | -1.4 | · | 5 | -2 | 0.69 | 5.9 | i | 2% |
| 38 | O=C(C[C@@H]1C[C@@H]2c3cc(NC(=O)C4CCC4)ccc3O[C@@H]2[C@@H](CO)O1)NC1CCCCC1 | 1.7 | · | · | 9 | 5 | · | -2.1 | i | · |
| 39 | Cc1cccnc1CN1CCN(C(=O)c2cc(COc3ccc4ncccc4c3)on2)CC1 | -3.0 | -0.7 | · | -13 | -12 | 0.69 | 3.4 | i | 5% |
| 40 | CCN(CC)S(=O)(=O)c1cccc(NC(=O)c2ccc(-n3nc(C)cc3C)cc2)c1 | · | -4.4 | -3 | · | · | 0.66 | · | · | 13% |
| 41 | CCn1nnc(NC(=O)COc2ccc([N+](=O)[O-])cc2)n1 | ? | 0.6 | · | -11 | -1 | 0.7 | 10 | i | 6% |
| 42 | CC1C(=O)N2CCCc3cc(S(=O)(=O)N4CCN(c5ccccc5F)CC4)cc1c32 (centres undefined) | 1.3 | 4.6 | -1 | -8 | -10 | 0.68 | 1.1 | i | 8% |
| 43 | CCOc1ccc(S(=O)(=O)N2CN(c3cccc(C(C)=O)c3)c3nc4ccccc4nc32)cc1 | 2.3 | 0.8 | -2 | · | · | 0.64 | · | i | -7% |
| 44 | CCOc1ccc(-c2nnn(CC(=O)Nc3cc(OC)cc(OC)c3)n2)cc1OCC | 1.7 | 3.1 | -7 | 0 | 2 | 0.75 | -3.0 | i | -1% |
| 45 | CC1=CC2=NC(=O)CC(C)(C(=O)N(CC(=O)NC(C)(C)C)C3CCCC3)N2C=C1 (centres undefined) | · | -0.2 | 3 | · | · | 0.69 | · | · | 1%&28% |
| 46 | COc1ccc(OC)c2cc3ccccc3cc12 | -8.7 | -69 | · | 5 | 13 | · | 2.0 | · | 14% |
| 47 | C[C@H]1CCCCO[C@@H](CN(C)Cc2ccc(C(=O)O)cc2)[C@@H](C)CN([C@@H](C)CO)C(=O)c2cc(NS(=O)(=O)c3ccc(Cl)cc3)ccc2O1 | -1.1 | · | · | 12 | 2 | · | 1.9 | i | · |
| 48 | Cc1ccc(S(=O)(=O)N2CCOCC2)cc1C(=O)N(Cc1nnc(-c2ccccc2Cl)o1)C1CC1 | 1.0 | 3.7 | -1 | -6 | 4 | 0.72 | 2.0 | i | · |
| 49 | Cc1nc2ccc(F)cc2cc1C(=O)NCC1CCCO1 (centres undefined) | · | 9.0 | · | · | · | 0.76 | · | · | 7% |
| 50 | COc1cc(CNc2ncnc3c2ncn3[C@H]2CN(Cc3cc(OC)c(OC)c(OC)c3)C[C@@H](CO)O2)cc(OC)c1OC | -4.3 | 2.0 | · | 9 | 8 | · | 9.4 | i | · |

Other entries.
| nr | smiles | AF4-AF9 inh | HNF4A DNA FP | ALR H2O2 inh | Ecoli rRNA inh OD600 | Ecoli rRNA inh | E coli growth | Ecoli rRNA inh RFP | FGF22 binding | Vif A3G |
| --- | --- | --- | --- | --- | --- | --- | --- | --- | --- | --- |
| 51 | O=C(CC1C(=O)NCCN1Cc1c(F)cccc1Cl)NCCCN1CCCC1=O (centres undefined) | -1.3 | -1.2 | -9 | 1 | 4 | 0.7 | -0.3 | i | · |
| 52 | COc1ccc(S(=O)(=O)NC(C)C)cc1-n1cnnn1 | -1.6 | 1.9 | -1 | 19 | 13 | 0.7 | 2.0 | · | 4% |
| 53 | COC(=O)c1sccc1-c1ccc(C(=O)Nc2ccccc2)o1 | · | 4.9 | · | · | · | 0.61 | · | · | -11% |
| 54 | Cc1cccc(C)c1NC(=O)COC(=O)c1ccc([N+](=O)[O-])o1 | -1.3 | -5.0 | -22 | 1 | 8 | 0.65 | -6.9 | i | 3% |

Bioassay records deposited in PubChem by several laboratories.
